Rango release inh: inhibitors of RanGTP-induced Rango-importin beta complex dissociation; Biochemical FRET Rango-importin beta, RanGTP-induced dissociation; Potency, µM (top dose mostly 46.1 µM), without a hit: at the top dose activity change, negative = inhibition; 340,000 tested, 0.071% active; AID 540253; active means falling FRET ratio curve, often poorly fitted, with flat reads before Ran was added; inconclusive means other falling curves, or compound fluorescence or quenching; inactive means flat or rising ratio curve;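 also: potency is read from the fitted curve at half-maximal effect; % of control where 0% means no effect; nearly all actives have a fitted effect of over 45% in size; -100% = wells without RanGTP and RCC1; the record marks most hits as doubtful in a second field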
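Two FRET readings bracket the reaction: one 5 min after compound meets Rango–importin beta, another 45 min after RanGTP-RCC1 (0.6 uM Ran, 0.2 uM RCC1, 2 mM GTP) is added. Only the second defines inhibition.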
miR-21 FLuc: raises the signal of a miR-21 reporter. HeLa miR-21 FLuc reporter, luciferase, 48 h. 340,000 tested, under 10 active. Potency, µM (series often up to 38.3 µM), for the others: top-dose reporter change, positive = more light; active = well fitted rising curve with a large enough effect; inconclusive = small, poorly fitted or top-dose-only effect; inactive = no such curve, though single readings can be large or run the other way;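 also: % of control where 0% means no effect; miR-21 action dims this reporter so a rising signal means less miR-21 action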
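Luminescence from a firefly luciferase reporter carrying a miR-21 binding site downstream, stably expressed under a CMV promoter in HeLa cells that make miR-21 endogenously, reports miRNA modulation after 48 h compound exposure up to approximately 40uM final.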
Rango-impB inh: Rango-importin beta binding inhibition; AID 540263; Potency, µM (highest dose often 92.2 µM), for inactives: top-dose inhibition of complex formation; Q14974; Rango CFP/YFP FRET sensor + importin beta, 45 min; 340,000 tested, 0.031% active; active = rising FRET ratio curve, often small or poorly fitted; inconclusive = mostly compound fluorescence or quenching in the first reads; inactive = flat curves in all reads;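 also: potency is read from the fitted curve at half-maximal effect; 0% = DMSO wells and 100% = buffer wells lacking importin beta; nearly all actives have a fitted effect of over 15% in size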
Target sequence (Q14974 whole entry, looked up): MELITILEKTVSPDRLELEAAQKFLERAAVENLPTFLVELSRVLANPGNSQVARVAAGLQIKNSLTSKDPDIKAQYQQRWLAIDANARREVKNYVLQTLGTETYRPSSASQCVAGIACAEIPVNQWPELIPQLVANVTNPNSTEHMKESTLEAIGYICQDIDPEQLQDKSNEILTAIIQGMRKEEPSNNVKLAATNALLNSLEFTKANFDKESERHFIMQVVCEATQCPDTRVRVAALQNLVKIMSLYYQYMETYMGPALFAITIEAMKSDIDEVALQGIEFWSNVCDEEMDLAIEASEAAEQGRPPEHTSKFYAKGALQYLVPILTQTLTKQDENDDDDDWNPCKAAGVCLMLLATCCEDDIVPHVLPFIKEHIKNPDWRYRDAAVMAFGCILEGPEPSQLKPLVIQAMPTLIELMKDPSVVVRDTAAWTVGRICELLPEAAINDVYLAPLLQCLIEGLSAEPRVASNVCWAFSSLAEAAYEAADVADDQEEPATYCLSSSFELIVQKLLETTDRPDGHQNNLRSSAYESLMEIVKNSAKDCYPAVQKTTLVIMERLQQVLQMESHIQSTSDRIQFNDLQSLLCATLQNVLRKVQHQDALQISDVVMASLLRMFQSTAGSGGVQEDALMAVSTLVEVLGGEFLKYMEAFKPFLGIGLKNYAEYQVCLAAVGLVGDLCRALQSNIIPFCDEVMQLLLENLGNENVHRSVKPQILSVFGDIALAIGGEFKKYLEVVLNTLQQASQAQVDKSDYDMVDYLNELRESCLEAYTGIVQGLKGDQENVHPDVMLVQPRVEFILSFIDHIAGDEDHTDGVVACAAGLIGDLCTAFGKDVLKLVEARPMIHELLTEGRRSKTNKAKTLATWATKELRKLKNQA
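FRET biosensor (snurportin 1 IBB flanked by EYFP and cerulean), 50 nM, with compound 5 min, then 0.125 microM importin beta in PBS, 1 mM DTT, 0.02% Tween-20, 0.1% BSA. CFP/YFP ratio read after 45 min at room temperature; pre-read flags interference.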
GLA inh pH 4.5: inhibitors of human alpha-galactosidase A at pH 4.5; P06280; purified enzyme, 4-MU-alpha-Gal fluorescence, pH 4.5; activity change, negative = inhibition, % at 105 µM; 230,000 tested, under 10 active; AID 1467; inconclusive = small, poorly fitted or top-dose-only inhibition, or a rising curve; inactive = flat fitted curve, though single readings scatter; no compound was filed as active;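 also: 0% = full activity with enzyme and -100% = basal without enzyme; dose as in the result columns while the protocol names 77 µM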
Active calls of the source: *; ? = inconclusive; . = no result given; & = joins results of further samples.

Rango release inh | miR-21 FLuc | Rango-impB inh | GLA inh pH 4.5 | compound
1% | -1% | 4.5% | 8 | Cc1cc([N+](=O)[O-])nn1CC(=O)NNC(=S)Nc1ccc(Cl)cc1
? | -20% | ? | -2 | Cc1ccc2nc3sc(C(=O)Nc4c(C)[nH]c(=O)[nH]c4=O)c(N)c3cc2c1
2% | -11% | 3.9% | 2 | Fc1ccc(N2CCN(Cc3nnc(-c4ccccc4)o3)CC2)cc1
-5% | -31% | ? | . | Cc1ccc(-c2csc(NC(=O)c3ccco3)n2)cc1C
0% | -6% | 0.4% | -4 | CC1(C)NC(=O)N(CNc2cc(Cl)ccc2Cl)C1=O
2% | 3% | -4.9% | . | Fc1ccc(CNC(=S)NCc2ccccc2)cc1
? | 1% | ? | 0 | C#CCOCCOCCOCCNc1nc(N2CCN(C(=O)[C@H](CCCCN)n3cc([C@@H](N)C(C)CC)nn3)CC2)nc(N2CCN(C(=O)[C@H](Cc3cc4ccccc4[nH]3)n3cc([C@@H](N)CC(C)C)nn3)CC2)n1 (some centres undefined)
-1% | . | -2.9% | . | NC(=O)C1CCN(C(=O)CCc2nc3sc4c(c3c(=O)[nH]2)CCCC4)CC1
-11% | -4% | ? | 0 | Cc1c(OC(=O)c2ccc([N+](=O)[O-])cc2)c2c(c[n+]1C)COC(C)(C)OC2
0% | 17% | -1.2% | 2 | Cc1cc(OCCn2cc(/C(N)=N/O)c3ccccc32)ccc1Cl
. | -8% | . | 4 | C/C(=N\NC(=O)C1CC1)c1cccc(NC(=O)c2cccc(Cl)c2)c1
8% | -50% | -1.5% | 6 | Nc1ncnc(Nc2cccc(Cl)c2Cl)n1
20% | 1% | -5.6% | . | Cc1c(C)c2ccc(OCC(=O)Nc3ccc(S(N)(=O)=O)cc3)c(C)c2oc1=O
0% | . | 7.2% | . | O=C(O)c1ccccc1
-1% | 7% | -2.3% | . | O=c1[nH]c(C2CCN(S(=O)(=O)c3ccc(C(F)(F)F)cc3)CC2)nc2c1nnn2Cc1ccc(F)cc1
14% | 4% | 0.7% | . | COc1ccc(CCNS(=O)(=O)c2cccc3nsnc23)cc1OC
-1% | 7% | 8.2% | 2 | O=C(Nc1nnc(-c2cccs2)o1)c1cccc(C(F)(F)F)c1
2% | -21% | 0.4% | . | CCc1ccc(NC(=O)CSc2nnc(-c3ccco3)o2)cc1
1% | 0% | -2.9% | -5 | Cc1cc(Cl)c(S(=O)(=O)NC(C(=O)O)C(C)C)cc1OCC(=O)NC1CCCCC1 (centres undefined)
-10% | -13% | -0.5% | 3 | O=C(NCCN1CCCCCC1)C1CCN(S(=O)(=O)N2CCOCC2)CC1
-9% | -1% | 0.5% | -5 | COc1ccc(Br)cc1/C=C\C(=O)NCc1cccnc1
0% | 0% | -0.7% | 9 | Cc1c(Br)c(C(N)=O)nn1C
7% | -4% | 0.3% | -5 | O=C(CN1CCN(Cc2ccc3c(c2)OCO3)CC1)Nc1ccc2c(c1)OCO2
0% | 2% | -2.8% | 5 | O=C(OCc1ccccc1Cl)c1ccc(-n2cnnc2)cc1
0% | 2% | -1.4% | 0 | CC(C)C(=O)NN1c2ccccc2CCc2ccccc21

Looked up by compound from the list above:
Rango release inh | miR-21 FLuc | Rango-impB inh | GLA inh pH 4.5 | compound
20% | 1% | -5.6% | . | Cc1c(C)c2ccc(OCC(=O)Nc3ccc(S(N)(=O)=O)cc3)c(C)c2oc1=O
0% | 2% | -1.4% | 0 | CC(C)C(=O)NN1c2ccccc2CCc2ccccc21

Remaining list, next part:
Rango release inh | miR-21 FLuc | Rango-impB inh | GLA inh pH 4.5 | compound
26% | 3% | 0.5% | . | COc1cc(C2NC(=O)NC(c3ccccc3)=C2C(C)=O)c(Br)c(Br)c1O (centres undefined)
-6% | . | -3.5% | . | CC(C)C[C@@H]1CN=C(N)N1C[C@@H]1CCCN1C[C@@H](C(C)C)N1C[C@@H](Cc2ccccc2)N(CCCC2CCCC2)C1=N
0% | -1% | -2.9% | . | CCN1CCC2(CCN(C(=O)c3cc(COc4cc(C)ccc4C)on3)C2)C1 (centres undefined)
-10% | -5% | 5.0% | . | Cc1c(OC(C)C(=O)N2C[C@H]3C[C@@H](C2)c2cccc(=O)n2C3)ccc2c3c(c(=O)oc12)CCCC3 (some centres undefined)
-25% | -3% | 0.7% | -18 | CCOC(=O)c1ccccc1NC(=O)c1c(O)c2ccccc2n(CC)c1=O
-4% | 4% | -1.4% | 5 | CN(C)c1nc(-c2ccccc2)nc(-c2ccc(Cl)cc2)c1C#N
19% | 0% | -4.5% | 2 | COC(=O)c1c(C)[nH]c(C(=O)OCC(=O)NCC(C)C)c1C
-11% | -2% | 1.0% | -13 | O=C(CSc1nnc2c(n1)[nH]c1ccccc12)Nc1cccc(S(=O)(=O)N2CCOCC2)c1
9% | -2% | 0.3% | . | CCOc1ccccc1N1CCN(C(=O)c2ccc(-c3ccc(OC(C)=O)cc3)cc2)CC1
-18% | -7% | 4.0% | -8 | Cn1cnc([N+](=O)[O-])c1Nc1ccccc1O
-4% | 5% | -1.9% | . | CC(Cc1ccc(Cl)cc1)N1CCC(n2nccc2NC(=O)C2CCCC2)CC1 (centres undefined)
13% | 16% | -0.2% | -7 | CC1Cc2ccccc2N1C(=O)C1CCCN(S(=O)(=O)c2cccc3cccnc23)C1 (centres undefined)
-8% | -1% | 1.7% | 3 | Cc1cc2c(=O)n(Cc3ccco3)c(SCC(=O)NCc3ccco3)nc2s1
9% | -3% | -0.1% | . | COc1ccc(C(=O)NC(C)CCCC(C)(C)O)cc1OC1CCN(C(C)=O)CC1 (centres undefined)
-8% | -4% | 0.2% | -1 | Cc1nnc(SCC(=O)Nc2ncc(S(=O)(=O)c3ccc([N+](=O)[O-])cc3)s2)s1
-4% | -21% | 2.7% | . | O=C(N/N=C/c1ccc2c(c1)OCO2)c1cccnc1
? | -39% | -7.7% | 2 | COc1ccc2c(c1)C1=NN(/C(C)=C\C(C)=O)C(c3ccccc3)C1CC2 (centres undefined)
-2% | 0% | ? | 2 | NC(=O)NC(=O)COC(=O)c1ccc2c(c1)C(=O)N(Cc1ccccc1)C2=O
-8% | -11% | -1.2% | -5 | COc1ccc(-c2cnnn2-c2ccc(NC(=O)/C=C/c3ccc(OC)c(OC)c3)cc2)cc1
0% | -15% | -0.2% | 0 | O=C(CSc1ccccc1)Nc1nc2ccccc2[nH]1
6% | 3% | 2.5% | -2 | COc1cccc(C2CC(c3cccs3)=NN2C(=O)CSc2nc3ccccc3o2)c1OC (centres undefined)
1% | -6% | -2.9% | . | COc1cccc(CNC(=O)C2Cc3cc(S(=O)(=O)N4CCCC4)ccc3N2C(C)=O)c1OC (centres undefined)
-9% | -7% | ? | 5 | COc1cc2c(cc1OC)C(c1ccccc1O)N(C1CC(=O)N(c3ccccc3)C1=O)CC2 (centres undefined)
-22% | -2% | ? | -8 | N#CCC(=O)N/N=C/c1ccc(OS(=O)(=O)c2ccccc2)cc1
7% | 2% | 2.3% | . | CCOC(=O)C1CCN(c2cc3c(cc2NC(=O)c2ccc(F)cc2)n(C)c(=O)n3C)CC1
0% | . | 8.3% | . | COc1ccc(C(=O)OCC(=O)N(C)C2CCS(=O)(=O)C2)cc1Br (centres undefined)
-8% | . | 1.1% | . | CCN1C(=O)[C@H]2[C@@H](c3ccc(-c4cccc(Cl)c4)c(OC)c3)N3CCCC[C@@]3(C(=O)OC)[C@H]2C1=O
-13% | -4% | 0.7% | -16 | CCN(CC)CCNCc1cc(Cl)ccc1OCc1ccccc1F
2% | 7% | ? | . | Cc1ccc(S(=O)(=O)NC2CC2)cc1[N+](=O)[O-]
-15% | -9% | 0.3% | 7 | COc1ccc(/C=C/C(=O)NC(C)(C)C)cc1S(=O)(=O)N1CCOCC1
23% | . | -0.1% | . | c1ccc(-c2nnc(-c3ccccn3)nn2)nc1
-16% | 12% | 0.1% | -11 | S=C(NCc1ccncc1)Nc1ccc(Cl)cc1
-12% | . | -3.8% | . | COc1ccc(CNC(=O)c2cc(S(=O)(=O)N3CCCCC3)ccc2Cl)cc1OC
15% | 7% | 1.5% | -4 | COc1cc(C(=O)NC(=S)NNC(=O)[C@H]2C[C@@H]2c2ccccc2)cc(OC)c1OC
-9% | -16% | -4.6% | . | CCOc1ccc(N2C(=O)CC(N3CCN(c4ccccc4OC)CC3)C2=O)cc1 (centres undefined)
-8% | 1% | 0.0% | -4 | CC(OC(=O)CNS(=O)(=O)/C=C/c1ccccc1)C(=O)Nc1ccc(S(=O)(=O)N2CCCC2)cc1 (centres undefined)
? | 1% | ? | 0&-9 | COC(=O)CCC(=O)OC1(C)C(=O)C2=CN(CC3CC3)C(c3ccc(OC)cc3)=CC2=C(Br)C1=O (centres undefined)
1% | -9% | -4.3% | . | Cc1ccc(Nc2nc3ccccc3n3cnnc23)cc1Cl
8% | . | 0.4% | . | O=C(c1ccc(F)cc1)N1CCC(C(=O)N(Cc2ccccc2)c2ccccc2)CC1
1% | -2% | 2.9% | 8 | CCNS(=O)(=O)c1ccc(NS(C)(=O)=O)cc1
-26% | 9% | -1.1% | 0 | N#Cc1cnn(-c2ccccc2)c1NC(=O)CN1CCN(c2ccccc2)CC1
19% | 5% | -5.2% | -1 | CC(=O)N1CCCc2cc(S(=O)(=O)N(C)Cc3ccccc3)ccc21
9% | 1% | 5.6% | . | Oc1cccc2ccc(/C=C/c3ccccc3Br)nc12
1% | 5% | -2.5% | -12 | O=c1[nH]c(-c2ccc3c(c2)OCO3)nc2c1sc(=S)n2-c1ccccc1
-4% | . | -1.7% | . | CC(C)(C)OC(=O)C[C@H]1C/C=C\C[C@@H](CC(=O)N[C@H](CO)Cc2ccccc2)C(=O)NC[C@@H](c2ccccc2)OC1=O
15% | -22% | 8.9% | 4 | COc1cccc(/C=N/n2c(CO)nc3ccccc32)c1OC
-4% | -1% | -0.7% | -2 | CCC(O)c1c(-c2ccccc2)nn(C)c1Cl (centres undefined)
? | -31% | ? | -8 | NC(=S)Nc1cccc2cc3ccccc3cc12
6% | -8% | -3.1% | 7 | OC(COCc1ccccc1)Cn1cnc2ccccc21 (centres undefined)
24% | -2% | -0.5% | -2 | CCNC(=O)COc1ccc(S(=O)(=O)Nc2ccccc2)cc1

Some of these compounds in order of the Rango-impB inh value, ascending:
Molecule | Rango-impB inh
CCC(O)c1c(-c2ccccc2)nn(C)c1Cl (centres undefined) | -0.7%
CC(OC(=O)CNS(=O)(=O)/C=C/c1ccccc1)C(=O)Nc1ccc(S(=O)(=O)N2CCCC2)cc1 (centres undefined) | 0.0%
O=C(c1ccc(F)cc1)N1CCC(C(=O)N(Cc2ccccc2)c2ccccc2)CC1 | 0.4%
Oc1cccc2ccc(/C=C/c3ccccc3Br)nc12 | 5.6%
COc1cccc(/C=N/n2c(CO)nc3ccccc32)c1OC | 8.9%

(next part)
Rango release inh | miR-21 FLuc | Rango-impB inh | GLA inh pH 4.5 | compound
5% | -35% | 5.1% | . | O=C(Nc1ccc2c(c1)OCCO2)c1cccc(Cl)c1
1% | -18% | 1.2% | -10 | CCc1c(C(=O)Nc2ccc(OC)cc2)[nH]c(C)c1C(C)=O
? | -5% | ? | -4 | Cc1cccc(COc2ccccc2/C=N/Nc2ccc([N+](=O)[O-])cc2)c1
15% | 21% | -2.6% | -3 | CCOC(=O)C1=C(C)NC(SC)=C(C#N)C1CC(C)C (centres undefined)
2% | 0% | 1.4% | 0 | O=C(NCCN1CCOCC1)c1cc(=O)[nH]c2ccc(Br)cc12
9% | -5% | 0.5% | . | O=C(NCc1ccc(F)cc1)C1CCCN1S(=O)(=O)c1cccc2nsnc12 (centres undefined)
1% | -1% | 2.5% | . | Cc1ccc(S(=O)(=O)NNC(=O)Nc2ccccc2F)c(C)c1
-12% | -2% | 6.0% | -3 | Cc1ccc(OCCCCNC2CCCCC2)c(C)c1
-16% | -3% | -11% | 9 | O=C(NCCc1ccccc1)C(=O)NCC(c1ccco1)N1CCOCC1 (centres undefined)
6% | . | -4.5% | . | O=C(NCC1CCCO1)c1ccc(NC(=O)c2cccc(Cl)c2)cc1 (centres undefined)
9% | -38% | 1.0% | -1 | Clc1ccc(CNCc2cccs2)cc1Cl
12% | -2% | 3.9% | -4 | O=C(NC1CCCC1)C1(c2ccccc2)CCN(S(=O)(=O)c2ccccc2)CC1
-12% | -2% | -2.3% | 2 | CC(C(=O)NCCN1C(=O)S/C(=C\c2cccs2)C1=O)N1C(=O)c2ccccc2C1=O (centres undefined)

Assay outcomes: PubChem BioAssay, National Center for Advancing Translational Sciences (NCATS)

The list is partial (hit frequency here may not be typical).
